Mtb growth: Confirmatory growth inhibition assay against Mycobacterium tuberculosis H37Rv, potency (AID 1949); most inactive calls were filed without a number and no value below 0 was filed; inhibition, % at 10 µg/mL; hits with a dose series show IC50 in µg/mL; actives 1.6% (n = 100,000);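 active = confirmed in a dose series; inconclusive = about 50% or more but not retested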;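 also: bacteria grown 7 days with compound before Alamar blue readout; 0% = untreated bacteria and 100% = reference antibiotic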
* marks the source's active call; other numbers are inactive results; i = inactive; ? = inconclusive. Only part of the results is shown; rates above refer to the full screens.

SMILES	Mtb growth
CCCCC(=O)Nc1ccc(C(=O)NC(c2ccccc2)c2ccccc2)cc1	4%
COc1ccc(NC(=O)c2c(NC(=O)CN3CCCC3)sc3c2CCC3)c(OC)c1	i
CCC1(C)Cc2c(sc3nc4n(c(=O)c23)CCCS4)CO1 (stereo unspecified)	2%
Cc1cc(NC(=O)Cc2ccccc2)ccc1O	1%
Cc1nnc(N/N=C/c2ccccc2Br)[nH]c1=O	3%
Cc1cc2c(cc1C)NC(CC(=O)Nc1cc(Cl)cc(Cl)c1)C(=O)N2 (stereo unspecified)	i
CC(CO)(CO)NC(=O)C(=O)Nc1ccccc1	i
Cc1ccc(-n2c(-c3cnccn3)n[nH]c2=S)cc1	i
CCOc1ccc2nc(SCC(=O)O)nc(C)c2c1	i
CCC(=O)N1C(=O)C(c2c[nH]c3ccccc23)(c2c[nH]c3ccccc23)c2ccccc21	3%
Nc1c(C(=O)NCc2ccccc2)c2nc3ccccc3nc2n1CCO	i
O=C(NC(=S)Nc1ccc(Cl)cc1)c1cccc2c(Br)cccc12	i
CCOC(=O)c1c(C)n(C)c2ccc(O)c(CN3CCC(C)CC3)c12	4%
COc1ccc(C(=S)N2CCCCC2)cc1Br	i
CC(=O)Nc1ccccc1NC(=O)c1ccc(OCc2ccccc2)cc1	i
O=C(c1sc2ccccc2c1Cl)N1CCN(c2ccccc2F)CC1	7%
CCc1c(C)sc(NC(=O)c2c(F)c(F)c(F)c(F)c2F)c1C(N)=O	i
COC(=O)c1c(-c2ccccc2)csc1NC(=O)c1c(F)cccc1F	9%
CCN(CC)CCN1C(=O)C(O)=C(C(=O)c2cc3ccccc3o2)C1c1ccccn1 (stereo unspecified)	i
COC(=O)NC(=O)c1ccc(Cl)cc1	i
NC(=O)c1ccc(NS(=O)(=O)c2cccs2)cc1	i
COc1ccc(CC(=O)NC(=S)Nc2ccc(S(=O)(=O)N3CCOCC3)cc2)cc1	i
CC(=O)c1cccc(NC(=O)C2C3C=CC(O3)C2C(=O)O)c1 (stereo unspecified)	1%
COc1cc(C(=O)Nc2ccc(N3CCN(C(=O)c4ccc(C)cc4)CC3)cc2)cc(OC)c1OC	i
CC(CC(=O)O)CC(=O)NCCN1CCCCC1 (stereo unspecified)	i

23 of the compounds above, as a markdown table:
| canonical_smiles | Mtb growth |
| --- | --- |
| CCCCC(=O)Nc1ccc(C(=O)NC(c2ccccc2)c2ccccc2)cc1 | 4% |
| COc1ccc(NC(=O)c2c(NC(=O)CN3CCCC3)sc3c2CCC3)c(OC)c1 | i |
| CCC1(C)Cc2c(sc3nc4n(c(=O)c23)CCCS4)CO1 (stereo unspecified) | 2% |
| Cc1cc(NC(=O)Cc2ccccc2)ccc1O | 1% |
| Cc1nnc(N/N=C/c2ccccc2Br)[nH]c1=O | 3% |
| Cc1cc2c(cc1C)NC(CC(=O)Nc1cc(Cl)cc(Cl)c1)C(=O)N2 (stereo unspecified) | i |
| CC(CO)(CO)NC(=O)C(=O)Nc1ccccc1 | i |
| Cc1ccc(-n2c(-c3cnccn3)n[nH]c2=S)cc1 | i |
| CCOc1ccc2nc(SCC(=O)O)nc(C)c2c1 | i |
| CCC(=O)N1C(=O)C(c2c[nH]c3ccccc23)(c2c[nH]c3ccccc23)c2ccccc21 | 3% |
| Nc1c(C(=O)NCc2ccccc2)c2nc3ccccc3nc2n1CCO | i |
| O=C(NC(=S)Nc1ccc(Cl)cc1)c1cccc2c(Br)cccc12 | i |
| CCOC(=O)c1c(C)n(C)c2ccc(O)c(CN3CCC(C)CC3)c12 | 4% |
| COc1ccc(C(=S)N2CCCCC2)cc1Br | i |
| CC(=O)Nc1ccccc1NC(=O)c1ccc(OCc2ccccc2)cc1 | i |
| O=C(c1sc2ccccc2c1Cl)N1CCN(c2ccccc2F)CC1 | 7% |
| CCc1c(C)sc(NC(=O)c2c(F)c(F)c(F)c(F)c2F)c1C(N)=O | i |
| COC(=O)c1c(-c2ccccc2)csc1NC(=O)c1c(F)cccc1F | 9% |
| CCN(CC)CCN1C(=O)C(O)=C(C(=O)c2cc3ccccc3o2)C1c1ccccn1 (stereo unspecified) | i |
| COC(=O)NC(=O)c1ccc(Cl)cc1 | i |
| NC(=O)c1ccc(NS(=O)(=O)c2cccs2)cc1 | i |
| COc1ccc(CC(=O)NC(=S)Nc2ccc(S(=O)(=O)N3CCOCC3)cc2)cc1 | i |
| CC(=O)c1cccc(NC(=O)C2C3C=CC(O3)C2C(=O)O)c1 (stereo unspecified) | 1% |

Continued.
SMILES	Mtb growth
CCc1ccc(CN2CCN(C(=O)c3cccs3)CC2)cc1	i
O=c1c2ccccc2ncn1-c1ccc(Cl)c(C(F)(F)F)c1	1%
Cc1ccccc1C(=O)N1CCN(c2ccc(NC(=O)Cc3ccccc3)cc2)CC1	i
Cc1cc(C)c(C)c(OCCCn2ccnc2)c1	?
C=CCn1c(COc2ccccc2Cl)nnc1SCC(=O)Nc1c(F)cc(F)cc1Br	2%
Cn1c(NCc2cc(Br)ccc2O)nc2ccccc21	i
C=CCn1c(SCc2ccc(C(=O)OC)cc2)nnc1-c1cc(Br)ccc1O	3%
CC(=O)Nc1ccc(C(=O)CSc2nnc(-c3ccc(C)cc3)o2)cc1	i
Cc1ccc(-c2nc3n(n2)C(=O)CC(c2cccs2)S3)cc1 (stereo unspecified)	i
COc1ccc(-c2csc(Nc3cccc4ccccc34)n2)cc1F	i
CC(C)c1ccccc1NC(=O)CSCc1ccc([N+](=O)[O-])cc1	1%
COc1ccc(S(=O)(=O)N(CCc2ccccc2)CC(=O)Nc2ccc3c(c2)OCO3)cc1	3%
CC(=O)Nc1cccc(Oc2nc(-c3ccccc3F)nc3ccccc23)c1	i
CCNc1nnc(-c2ccccc2OC)s1	0%
COc1ccccc1CCNC(=O)c1ccc(COc2ccc3c(c2)CCC3)cc1	i
CCOC(=O)N1CCN(S(=O)(=O)c2ccc(C)c(C)c2C)CC1	8%
Cc1ccc(C)c(N2CCN(C(=O)C(Cc3ccccc3)NC(=O)c3ccco3)CC2)c1 (stereo unspecified)	1%
COc1cc([N+](=O)[O-])ccc1NC(=S)Nc1cc(C)cc(C)n1	i
COC(=O)c1ccc(C)c(NS(=O)(=O)c2ccc(OC)c(OC)c2)c1	i
CC(C)(C)c1ccc(C(=O)N2CCN(S(C)(=O)=O)CC2)cc1	i
O=C(NC(=S)N1CCOCC1)c1ccccc1Br	?
CC(=O)Nc1ccccc1-c1nc2ccccc2nc1OCC(=O)c1ccc2ccccc2c1	?
Cc1ccc(NS(=O)(=O)c2ccc(Br)s2)nc1	1%
O=C(O)c1cccc(NC(=S)NC(=O)c2ccccc2I)c1	i
COc1cc(CNc2ccc(C(=O)O)cc2)ccc1OCc1ccccc1	10%

The results go on:
SMILES	Mtb growth
CCOc1ccc(S(=O)(=O)NC2CCCCC2C)cc1 (stereo unspecified)	i
CC(C)=C1C2CCC1C(C(=O)Nc1nc(-c3ccc(F)cc3)cs1)C2C(=O)O (stereo unspecified)	i
COc1ccc(S(=O)(=O)N2CCC(C(=O)Nc3cccc(SC)c3)CC2)cc1	i
COc1ccc(C(=O)Nc2cc(C(F)(F)F)ccc2F)cc1	i
COC(=O)c1ccc(COC(=O)c2ccc3ccccc3c2O)cc1	i
Nc1nnc(SCC(=O)N2CCc3ccccc32)s1	i
O=C(CSCC(=O)n1c2c(c3ccccc31)CCCC2)Nc1ccccc1	i
CN(C)S(=O)(=O)c1cccc(-c2cn3cccnc3n2)c1	i
Cc1ccc(NC(=O)c2c(-c3ccccc3)noc2C)c(NC(=O)c2c(-c3ccccc3)noc2C)c1	i
COc1cc(S(=O)(=O)NC2CCCCC2C)c(OC)cc1Cl (stereo unspecified)	2%
COC(=O)c1cc(NC(=O)CN(c2cccc(OC)c2)S(=O)(=O)c2ccccc2)ccc1Cl	i
Nc1nc(NCc2ccccc2)nn1-c1ccccc1	5%
O=[N+]([O-])c1ccccc1OCCNC1CCCC1	i
CN(Cc1ccccc1)S(=O)(=O)c1ccc(OCC(=O)O)cc1	i
Cc1cccc(-n2c(N)cc(=O)nc2SCC(=O)Nc2nnc(CC(C)C)s2)c1	i
CC(CNC(=O)c1cccs1)c1ccc([N+](=O)[O-])cc1 (stereo unspecified)	2%
COc1cccc(NC(=O)c2cc(I)ccc2Cl)c1	1%
Cc1cc2ncn(CCc3ccccc3)c2cc1C	?
O=C(Nc1ccccc1C(=O)NC1CCCCCC1)c1ccco1	6%
COc1ccc(NC(=O)CC2Sc3ccc(C(F)(F)F)cc3NC2=O)c([N+](=O)[O-])c1 (stereo unspecified)	3%
COc1ccccc1-c1nnc(SCc2ccc(C#N)cc2)n1C	i
COC(C(=O)Nc1cc(Cl)ccc1C)c1ccccc1 (stereo unspecified)	i
Nc1c2c3c(sc2nc(=O)n1N)CCCC3	i
COCCn1c(CN(C)Cc2ccccc2)nc2c1c(=O)n(C)c(=O)n2C	i
Cc1cc(C)nc(NC(=O)Nc2ccccc2C(F)(F)F)n1	6%

The list continues.
SMILES	Mtb growth
O=C(NCCCn1ccnc1)c1ccncc1	i
Cc1ccc(NC(=O)Cc2ccccc2)cc1F	i
CCc1ccc(NC(=O)CN(c2ccc(OC)c(Cl)c2)S(=O)(=O)c2ccccc2)cc1	6%
O=S(=O)(c1ccc(I)cc1)N1CCC(Cc2ccccc2)CC1	4%
COc1ccc(OC)c(Nc2nnc(C)c(=O)[nH]2)c1	i
COc1ccc(OC)c(N(CC(=O)N2CCCCC2)S(=O)(=O)c2ccccc2)c1	i
COc1ccc(NC(=O)CN(c2cccc(C(F)(F)F)c2)S(C)(=O)=O)c(OC)c1	i
CCOC(=O)COc1ccc(S(=O)(=O)N2CCC(C)CC2)cc1	1.4µg/mL*
O=C(O)c1[nH]nc2c1COc1ccccc1-2	i
COc1ccc(-c2noc(CCc3ccccc3)n2)cc1OC	5%
CC(Oc1ccc(Br)cc1)C(=O)Nc1ccncc1 (stereo unspecified)	3%
O=C(Nc1ccccc1)C(C(F)(F)F)C(F)(F)F	i
Cn1c(SCc2ccc(Cl)c(Cl)c2)nnc1-c1ccco1	1%
O=S(=O)(Nc1ccc(Oc2ccc(NS(=O)(=O)c3ccccc3)cc2)cc1)c1ccccc1	5%
Cc1ccc(S(=O)(=O)N(CC(=O)NCc2ccccn2)Cc2ccc(Cl)cc2Cl)cc1	1%
Cc1nc(NC(=O)COc2ccccc2[N+](=O)[O-])ccc1Br	i
COC(=O)c1ccc(COc2cc(C)cc3oc(=O)cc(C)c23)cc1	0%
Cc1c(C=O)c(=O)n(-c2ccccc2)n1-c1ccccc1	i
Nc1cc(C(=O)NC2CCCCC2)ccc1C(=O)NC1CCCCC1	i
COc1cc(COc2cc(C)cc3oc(=O)c4c(c23)CCC4)cc(OC)c1OC	i
N/C(=N\OC(=O)CC1CCCCC1)c1cccnc1	1%
CC(C)(C)C(=O)N1CCN(c2ccc([N+](=O)[O-])c(N3CCOCC3)c2)CC1	i
Cc1ccccc1OCc1nnc(SCC(=O)Nc2cccc([N+](=O)[O-])c2)n1C	i
Cc1ccc(C)n1-c1ccc(-c2ccc([N+](=O)[O-])cc2)cc1	i
COC(=O)c1ccc(C(=S)N2CCN(Cc3ccccc3)CC2)cc1	i

New compounds follow:
SMILES	Mtb growth
OCc1cccc(OCc2ccc(Br)cc2)c1	i
CCc1cccc(OCCCNC(C)CC)c1 (stereo unspecified)	i
COc1ccc(N2CCN(C(=O)CCN3C(=O)c4cccc5cccc(c45)C3=O)CC2)cc1	i
COc1ccccc1N1CCN(S(=O)(=O)c2ccc3[nH]c(=O)[nH]c3c2)CC1	2%
CCCCc1nc(-c2ccncc2)no1	i
COC(=O)C1=C(C)c2oc(N)nc2C1c1ccccc1 (stereo unspecified)	i
O=C(NCc1ccncc1)C1CCN(C(=O)c2ccc(-c3ccccc3)cc2)CC1	i
COCCNC(=O)c1cc(Br)ccc1Cl	i
O=C(CNCC1CCCO1)Nc1sc2c(c1C(=O)Nc1ccc(Br)cc1)CCC2 (stereo unspecified)	?
COC(=O)c1sc2nc(-c3ccccc3)nc(SC)c2c1C	i
O=C(NC(=S)Nc1ccc(Cl)c(C(=O)O)c1)c1ccc(I)cc1	i
COc1cc(OC)cc(C(=O)Nc2cc(C)c(Cl)cc2OC)c1	i
O=C(Nc1ccc(-c2nc3ccccc3c(=O)o2)cc1)C(c1ccccc1)c1ccccc1	i
COc1cccc(CNCc2cccnc2)c1OCc1ccc(F)cc1	i
COC(=O)c1ccc(NC(=O)CSc2ccc(Br)cc2)cc1	i
CCOc1ccc(NS(=O)(=O)c2ccc(NC(=O)NC3CCCCC3)cc2)cc1	1%
COC(=O)C1=C(C)NC2=C(C(=O)CC(c3ccco3)C2)C1c1ccccc1F (stereo unspecified)	i
CCc1ccccc1NC(=O)c1ccccc1-c1ccccc1	47%
Cc1sc2nc(SCc3ccccc3C#N)n(-c3ccccc3)c(=O)c2c1C	i
CCN1C(N)=C(C#N)C(c2ccc3[nH]c4ccccc4c3c2)c2nc(C)oc21 (stereo unspecified)	i
CSc1nc(C)cc(SC(C(C)=O)C(=O)Nc2ccccc2)n1 (stereo unspecified)	i
COCC(=O)n1nc(-c2ccc(Cl)cc2)nc1NCc1ccco1	i
Cc1cc(I)ccc1NC(=O)CC(C)C	i
NC(=O)C1(N2CCCCC2)CCN(CC(=O)Nc2ccccc2-c2ccccc2)CC1	i
CCc1cccc(CC)c1NC(=O)CSc1ncccn1	i

(further entries)
SMILES	Mtb growth
O=c1[nH]c(-c2ccsc2)nc2sc3c(c12)CCCC3	i
Cc1cc(C)n(C(=O)C(C)Oc2ccc(Cl)cc2Cl)n1 (stereo unspecified)	i
CCNc1cc(N2CCNCC2)ccc1[N+](=O)[O-]	i
O=C(COc1ccc(NC(=O)c2cccc([N+](=O)[O-])c2)cc1)c1ccc(Br)cc1	i
CCc1nnc(NC(=O)CCCOc2ccc(Cl)cc2C)s1	i
Cc1ccc2c(Cl)c(C(=O)Nc3sc4c(c3C#N)CCCC4)sc2c1	i
Cc1ccc(C(=O)N2CCN(c3ccc(NC(=O)c4ccco4)cc3)CC2)cc1	i
O=C1C2C(C(=O)N1Cc1ccccc1)C2(c1ccccc1)c1ccccc1 (stereo unspecified)	i
CCOC(=O)C1CCN(C(=O)CCS(=O)(=O)Cc2ccccc2)CC1	i
CCOC(=O)c1ccc(NC(=O)CC2C(=O)N(c3ccccc3)C(=O)N2CCCOC)cc1 (stereo unspecified)	i
Cc1ccc(NC(=O)CCN2C(=O)C3C4CCC(C4)C3C2=O)cc1Cl (stereo unspecified)	i
CCCn1c(Cc2ccccc2)nnc1SCC(=O)NCc1ccc(OC)cc1	i
